Assay outcomes: PubChem, several laboratories
PrP UTR inh – inhibition of PrP 5' UTR reporter expression | cell-based PrP 5' UTR mRNA reporter, plate reader | inhibition, % (test concentration not listed) | 340,000 tested, 0.35% active;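 active = every replicate at 50% or more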;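 also: 0 = median of the neutral control wells; tested in H4 reporter cells; numbers are from one replicate; inactives centre near -14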
Autofluor counter – compound fluorescence in toxin protease inhibitor counterscreen; 360,000 tested, 3.1% active; AID 624483; fluorescence intensity (no concentration beside the values); compound autofluorescence counterscreen, microsphere flow cytometry; active compounds read high;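 active = at least 3 SD above the mean of all compounds, about 16000 in these data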;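 also: 100 nL of 1 mM stock went into each well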
An asterisk follows results filed as active.

smiles | PrP UTR inh | Autofluor counter
O=C(Nc1ccc2c(c1)OCO2)[C@@H]1CCCN1S(=O)(=O)c1cccc2cccnc12 | -14.5 | 3743
CN(C)c1ccc(C=NNC(=O)c2cccnc2)cc1 | -26.3 | 4114
CC(C)(C)OC(=O)N1CCCC(C(=O)Nc2ccc(C(=O)NC3CC3)cc2)C1 (stereo unspecified) | -20.6 | 3991
COc1ccc(C(=O)c2ccc3oc(-c4ccc(OC)cc4)c(-c4ccc(O)cc4)c3c2)cc1 | 0.8 | 3596
CCN1C[C@@H]2[C@@H]3C(=O)N(Cc4ccccc4)C(=O)[C@@H]3[C@](C)(C1=O)N2C(=O)c1ccc(C(F)(F)F)cc1 | -26.4 | 4094
COc1ccc(NC(=O)COC(=O)CCc2nc3ccccc3c(=O)[nH]2)c(OC)c1 | 7.3 | 3850
Oc1cc(O)cc(/C=C/c2ccc(O)cc2O)c1 | 4.6 | 2934
O=C1NCCN(CC2CCN(CCC3CCCC3)CC2)C1=O | -15.5 | 2977
O=C(COC(=O)Cc1c[nH]c2ccccc12)Nc1cc(S(=O)(=O)N2CCOCC2)ccc1Cl | -7.2 | 3841
CCN1C[C@@H]2[C@@H]3C(=O)N(C)C(=O)[C@@H]3[C@](CC)(C1=O)N2C(=O)c1ccc(C(C)(C)C)cc1 | -4.1 | 3718
CC(C)N1CCN(c2ccc(OC[C@H]3CO[C@](Cn4cncn4)(c4ccc(Cl)cc4Cl)O3)cc2)CC1 | 52.6 | 5587
C=CCC[C@@H](Cc1ccc(F)cc1)C(=O)OC[C@@H](Cc1c[nH]c2ccccc12)NC(=O)[C@H](CC=C)CC(=O)NCCO | -12.7 | 3973
C=CC[C@@H](CC(=O)NCCO)C(=O)N[C@@H](COC(=O)[C@@H](CC=C)Cc1ccc(F)cc1)Cc1c[nH]c2ccccc12 | -8.1 | 4198
C[C@H]1COC(=O)[C@@H](Cc2ccc(F)cc2)CC/C=C/C[C@H](CC(=O)N(CCO)Cc2ccccc2)C(=O)N1 | -15.3 | 2875
CCN(CC)S(=O)(=O)c1cccc(C(=O)N/N=C(\C)c2cccs2)c1 | -64.9 | 4384
CC(C)CCCN1C(N(C)C)=NC[C@@H]1C | -5.2 | 2921
COC1=CC(=O)C=C(OC)C1(O)CC(C)=O | -11.3 | 4159
CCOC(=O)[C@H]1[C@H]2COc3ccc(C)cc3[C@@H]2N2C(=O)[C@@H](CO)NC(=O)[C@@]12C | -12.1 | 2901
C[C@H](CO)N1C[C@H](C)[C@@H](CN(C)C(=O)Nc2ccccc2)Oc2c(NC(=O)Nc3ccc4c(c3)OCO4)cccc2C1=O | -0.4 | 3672
COc1cccc(NC(=S)N2CCC(C(=O)c3ccc(F)cc3)CC2)c1 | -8.3 | 3639
COc1ccc(S(=O)(=O)N(C)C[C@H]2Oc3ccc(NC(=O)C4CC4)cc3C(=O)N([C@H](C)CO)C[C@@H]2C)cc1 | -30.8 | 2988
Cc1ccc(N2C(=O)N3[C@@H]4c5ccccc5OC[C@@H]4[C@@H](c4ccccc4)[C@@]3(C)C2=O)cc1 | -16.7 | 3973
C=CC(=O)Nc1cccc(Nc2nc(N[C@H]3CC[C@H](N(C)C)CC3)nc3c2ncn3C(C)C)c1 | 71.2* | 2975
CC(=O)N1CCN(S(=O)(=O)c2cccc(C(=O)OCC(=O)N(CCC#N)c3ccc(F)cc3)c2)CC1 | -4.0 | 4786
C/C(=N\NC(=O)c1ccc(O)cc1)c1ccc(NC(=O)Cc2ccccc2)cc1 | -15.3 | 6016
S=c1[nH]nc(COc2ccccc2)n1-c1ccc(Cl)cc1 | -39.4 | 3805
CCOC(=O)[C@H]1[C@H]2COc3ccc(C)cc3[C@@H]2N2C(=O)c3ccc(F)cc3NC(=O)[C@@]12C | 7.9 | 3968
O=C1NC[C@@H](c2ccccc2)OC(=O)[C@@H](Cc2ccc(F)cc2)C/C=C\C[C@@H]1CC(=O)N(CCO)Cc1ccccc1 | -17.3 | 3334
CC[C@]12C(=O)N(C)C[C@H]([C@@H]3C(=O)N(Cc4ccccc4)C(=O)[C@@H]31)N2C(=O)c1ccccc1 | -7.2 | 3510
CN(C(=O)c1cccc(NC(=O)Cc2cccc(NC(=O)C3CCCN(C(=O)C4CCC4)C3)c2)c1)C1CCC1 (stereo unspecified) | 5.1 | 3723
COc1ccccc1N(CC(=O)N/N=C(\C)c1ccc(F)cc1)S(=O)(=O)c1ccccc1 | -10.9 | 3404
C=CC[C@@H](CC(=O)N(CCO)Cc1ccccc1)C(=O)N[C@H](C)COC(=O)[C@@H](CC=C)Cc1ccc(F)cc1 | -0.9 | 3525
COc1ccc([C@@H]2CC=C(C(=O)O)[C@H](c3ccc(F)cc3)N2S(=O)(=O)c2ccc(C)cc2)cc1OC | -7.9 | 3897
COC(=O)Nc1nc2ccccc2[nH]1 | -35.3 | 3413
COc1cc(/C=C/C(=O)O[C@H]2[C@H](O[C@@H]3O[C@@H](C)[C@H](O)[C@@H](O)[C@H]3O)[C@@H](O)[C@H](OCCc3ccc(O)c(OC)c3)O[C@@H]2CO)ccc1O | -3.2 | 4018
O=C1C=CC(=O)c2c(O)c(N3CCN(CCOCCO)CC3)c(Br)c(O)c21 | -71.6 | 3398
COC(=O)C1CCN(C(=O)C2CC(=O)N(c3ccc(C)c(Cl)c3)C2)CC1 (stereo unspecified) | -31.8 | 4048
O=C1OC[C@@H]2CCCN2C(=O)[C@H](CC(=O)N(CCO)Cc2ccccc2)C/C=C\CC[C@H]1Cc1ccc(F)cc1 | -7.5 | 3393
COC(=O)C1=C(c2ccc(F)cc2OCc2ccccc2)C[C@@H]2CC[C@H]1N2C(=O)NC(C)C | 20.1 | 3931
CN(C)Cc1cc(C(F)(F)F)ccc1C(O)(c1ccccc1)c1ccccc1 | -11.0 | 4025
CCOc1ccc(CCN2C(=O)C(=O)N([C@@H](CC(C)C)CN3CCC[C@@H]3CN3C(=O)C(=O)NC[C@@H]3Cc3ccccc3)C[C@@H]2CC(C)C)cc1 | -0.2 | 4053
COC(=O)C1=C(c2cccc(C#N)c2)C[C@@H]2CC[C@H]1N2C(=O)NC1Cc2ccccc2C1 | -11.7 | 2957
Cc1cc(Oc2cccc3c2S(=O)(=O)N(C2CCCC2)CC(COCc2ccccc2)O3)cc(C)c1C (stereo unspecified) | 5.0 | 3059
CC(C)(C)OC(=O)C[C@@H]1C/C=C\C[C@@H](CC(=O)N(CCO)Cc2ccccc2)C(=O)NC[C@@H](c2ccccc2)OC1=O | -4.7 | 2991
CC(=O)OC1CCC2C3CCc4cc(O)ccc4C3CCC12C (stereo unspecified) | -32.9 | 5098
C/C(=N/NC(=O)c1sc(NS(=O)(=O)c2ccc(C)cc2)nc1C)c1sc(N)nc1C | -12.2 | 4958
CCOc1ccc(Cl)cc1C1=CC(=O)C[C@H](c2ccc(OC)cc2)C1 | 9.4 | 3994
O=C1C[C@@H]2c3c(cccc3CN1Cc1ccc(F)cc1)C[C@@H](O)[C@H]2O | -16.4 | 4093
Cc1ccc(S(=O)(=O)Nc2ccccc2N=Cc2c(F)c(F)c(F)c(F)c2F)cc1 | -15.0 | 3899
O=C(O)[C@@H]1CCCN1S(=O)(=O)c1cccc2cccnc12 | -8.2 | 2898

Given with values under each structure: part of the list above
Below each compound: PrP UTR inh	Autofluor counter
C/C(=N/NC(=O)c1sc(NS(=O)(=O)c2ccc(C)cc2)nc1C)c1sc(N)nc1C
 : -12.2	4958
O=C(O)[C@@H]1CCCN1S(=O)(=O)c1cccc2cccnc12
 : -8.2	2898
COc1cc(/C=C/C(=O)O[C@H]2[C@H](O[C@@H]3O[C@@H](C)[C@H](O)[C@@H](O)[C@H]3O)[C@@H](O)[C@H](OCCc3ccc(O)c(OC)c3)O[C@@H]2CO)ccc1O
 : -3.2	4018

(more compounds)
smiles | PrP UTR inh | Autofluor counter
CO[C@H]1CC=C2CCN3CCC4=C(CC(=O)OC4)[C@]23C1 | -22.9 | 5357
Cc1ccc(CN2Cc3cccc4c3[C@@H](CC2=O)[C@H](O)[C@H](O)C4)cc1 | -9.7 | 3580
CC(C)C[C@@H](CNCC(=O)[C@H](Cc1c[nH]c2ccccc12)NC(=O)c1[nH]cnc1C(=O)N[C@@H](C)CN)NC(=O)c1nc[nH]c1C(=O)N[C@@H](CC(=O)O)C(=O)O | -0.2 | 2897
CC1(C)N=C(N)N=C(N)N1CCCCc1ccccc1 | 50.5 | 4039
CCOc1ccccc1NC(=O)C1CCCC1 | -3.9 | 3059
C#CCOCCOCCOCCNc1nc(N2CCOCC2)nc(N2CCN(C(=O)CCCCCCCCCCNC(=O)[C@H]([C@@H](C)CC)n3cc(CCCCN=C(N)N)nn3)CC2)n1 | -9.6 | 4056
CCOC(=O)C1=CN(Cc2cccc(F)c2)S(=O)(=O)N(CC)C1c1ccc(F)c(Cl)c1 (stereo unspecified) | -35.4 | 3833
COc1ccc(-c2oc3cc(O)c(OC)c(O)c3c(=O)c2OC)cc1O | 28.9 | 4067
COC(=O)C1=C(c2ccc(OC)c(OC)c2)C[C@@H]2CC[C@H]1N2C(=O)NC1CC1 | -5.0 | 4382
COc1cccc([C@@H]2CC=C(C(=O)O)[C@H](c3ccccc3)N2S(=O)(=O)c2ccc(C)cc2)c1 | -10.6 | 4358
CCCCSc1nc2c([nH]1)c(=O)n(C)c(=S)n2C | -38.0 | 4251
Cc1cc(C)c(S(=O)(=O)/N=C2\C=CC(=O)C(Cl)=C2)c(C)c1 | -18.7 | 10614
C[C@H](O)[C@@H]1C(=O)N2CCc3ccc(N4CCOCC4)cc3[C@@H]2C[C@@H]1N(C)S(=O)(=O)c1ccccc1 | -11.2 | 4040
COC(=O)[C@@]12CCCN1[C@H](c1ccc(-c3ccccc3)c(OC)c1)[C@H]1C(=O)N(C)C(=O)[C@H]12 | -14.4 | 2875
CC(=O)O[C@H]1[C@@H](O)[C@H](O)[C@H](Oc2c(O)c(C)c3c4c2[C@@H](C)CC[C@@H]4[C@@H](C)C[C@H]3C=C(C)C)O[C@H]1C | -20.7 | 3934
O=C(Cc1ccccc1[N+](=O)[O-])NCC1(c2cccc3c2OCO3)OCCO1 | -51.8 | 3768
COC(=O)C1=C(c2c(C)noc2C)C[C@@H]2CC[C@H]1N2C(=O)NCC1CC1 | -3.1 | 2730
COc1ccc(-c2coc3cc(O[C@@H]4O[C@H](CO)[C@@H](O)[C@H](O)[C@H]4O)ccc3c2=O)cc1 | -28.3 | 4333
COC(=O)C1OC1c1cc([N+](=O)[O-])ccc1OC (stereo unspecified) | -5.1 | 2958
CCCCNc1c(-c2cccc(Sc3ccc(OC)cc3)c2)nc2ccccn12 | -4.7 | 3120
Cc1noc(C)c1S(=O)(=O)N(C)C[C@H]1Oc2c(NC(=O)NC(C)C)cccc2C(=O)N([C@H](C)CO)C[C@@H]1C | -10.7 | 3516
CCCCCCCCCCCCCCCC(O)C[N+](C)(C)CCO (stereo unspecified) | 4.1 | 4092
CCN1C(=O)[C@H]2[C@@H](c3ccc(-c4cc(C(C)=O)cs4)cc3)N[C@@](Cc3ccccc3)(C(=O)OC)[C@H]2C1=O | -12.7 | 3946
Cc1cc(Br)c(OCc2ccc(C(=O)N/N=C/c3ccc[nH]3)cc2)c(Br)c1 | 36.0 | 4539
COc1ccc(N2CC(C(=O)N/N=C/c3ccccc3)CC2=O)cc1 (stereo unspecified) | -5.0 | 3246
N#Cc1c(N)n(C2OC(CO)C(O)C2O)c2ncnc(N)c12 (stereo unspecified) | 55.5 | 3212
O=C1CSC(=S)N1N=Cc1ccc(Cl)s1 | -27.4 | 3018
CCOC(=O)[C@H]1[C@H]2COc3ccc(Cl)cc3[C@@H]2N2C(=O)c3cc(Br)ccc3NC(=O)[C@@]12C | -18.8 | 4087
CC(=O)C[C@H](O)CC(=O)[C@H]1OC(=O)CCCCC/C=C/Cc2ccccc21 | -21.6 | 2944
COc1ccc(-c2oc(=O)c3cc(OC)c(OC)cc3c2C#C[C@]2(O)CC[C@H]3[C@@H]4CCc5cc(OC)ccc5[C@H]4CC[C@@]32C)cc1 | -29.5 | 4038
CC(C)(C)[C@H]1COC(=O)CCC/C=C/C[C@H](CC(=O)NCCO)C(=O)N1 | -28.2 | 4053
O=c1[nH]cc(NCc2ccccc2)c(=O)[nH]1 | -15.0 | 3095
CCN1C[C@@H]2[C@@H]3C(=O)N(C)C(=O)[C@@H]3[C@](Cc3ccccc3)(C1=O)N2C(=O)c1ccc(C)cc1 | -32.1 | 4167
O=C(CC1S/C(=N/N=C/c2cccnc2)NC1=O)Nc1ccccc1 (stereo unspecified) | -8.8 | 4105
CCOC(=O)[C@H]1[C@H]2COc3ccc(OC)cc3[C@@H]2N2C(=O)c3cc(C)ccc3NC(=O)[C@@]12C | -18.0 | 4087
COC(=O)[C@H]1C[C@@H](c2ccccc2)[C@H](C)C1(C)C | -3.6 | 4235
Cc1ccc(C(=O)NNC(=O)c2ccncc2)cc1[N+](=O)[O-] | -12.4 | 3634
CCCCCCCCNCCS(=O)(=O)NCc1ccccc1OC | -12.4 | 3618
O=C(N/N=C(\Cc1ncc[nH]1)c1ccccc1)c1cccnc1 | -13.3 | 3259
COc1cc2c(c(OC)c1OC)-c1ccc(O)c(=O)cc1[C@@H](NC(C)=O)CC2 | -0.1 | 4892
CC(C)(O)[C@@H]1CC[C@@](C)(C2CC[C@]3(C)C2[C@H](O)CC2[C@@]4(C)CC[C@H](O)C(C)(C)C4[C@@H](O[C@H]4O[C@@H](CO)[C@H](O)[C@@H](O)[C@@H]4O[C@@H]4O[C@H](CO)[C@@H](O)[C@H](O)[C@H]4O)C[C@]23C)O1 (stereo in doubt) | -3.7 | 3462
OCC[C@H]1C[C@H](O)[C@@H](O)[C@]2(OCCc3ccccc32)O1 | -21.9 | 4056
C=CCC[C@@H](Cc1ccc(F)cc1)C(=O)OC[C@@H](NC(=O)[C@@H](CC=C)CC(=O)N[C@@H](CO)Cc1ccccc1)C(C)(C)C | -22.4 | 3822
Cc1noc(C)c1-c1csc(N2CCC(C(N)=O)CC2)n1 | -45.1 | 4266
CC(=O)C[C@@H](O)CC(=O)[C@@H]1OC(=O)CC/C=C\Cc2ccccc21 | 11.4 | 2837
Cc1ccc(S(=O)(=O)n2cc(-c3ccccc3)c3ccccc32)cc1 | 50.2 | 3411

An excerpt; the hit share may differ from the screen's.
